Assay outcomes from PubChem.
miR-21 FLuc: raises the signal of a miR-21 reporter. HeLa miR-21 FLuc reporter, luciferase, 48 h. Potency, µM (titrated, usually from 38.3 µM), inactives show top-dose reporter change, positive = more light. 340,000 tested, under 10 active. AID 2288; active = well fitted rising curve with a large enough effect; inconclusive = small, poorly fitted or top-dose-only effect; inactive = no such curve, though single readings can be large or run the other way;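 further: % of control where 0% means no effect; miR-21 action dims this reporter so a rising signal means less miR-21 action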
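HeLa miR-21-FLuc reporter line, endogenous miR-21; 2000 cells/well in DMEM/10% FBS; compound titration up to ~40uM final, 48 h, 37 degree Celsius; luciferase detection reagent, 15 min lysis, CCD luminescence.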
Rango dissoc inh: prevents RanGTP from dissociating the Rango-importin beta complex. Biochemical FRET Rango-importin beta, RanGTP-induced dissociation. Potency, µM (series often up to 46.1 µM), for inactives: at the highest dose activity change, negative = inhibition. hit rate 0.071% among 340,000. AID 540253; active means falling FRET ratio curve, often poorly fitted, with flat reads before Ran was added; inconclusive means other falling curves, or compound fluorescence or quenching; inactive means flat or rising ratio curve;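 further: potency means the concentration at half of the fitted maximal effect; % of control where 0% means no effect; nearly all actives have a fitted effect of over 45% in size; -100% = wells without RanGTP and RCC1; the record marks most hits as doubtful in a second field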
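Quantitative HTS using a FRET biosensor: 0.1 uM Rango, 0.25 uM importin beta, 0.6 uM Ran, 2 mM GTP, 0.2 uM RCC1 final, PBS with DTT, Tween-20 and BSA. Post-read taken 45 min after Ran addition.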
GLA inh pH 4.5: alpha-galactosidase A (human) inhibition, pH 4.5 | purified enzyme, 4-MU-alpha-Gal fluorescence, pH 4.5 | activity change, negative = inhibition, % at 105 µM | 230,000 tested, under 10 active | AID 1467; inconclusive = small, poorly fitted or top-dose-only inhibition, or a rising curve; inactive = flat fitted curve, though single readings scatter; no compound was filed as active;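 further: 0% = full activity with enzyme and -100% = basal without enzyme; dose as in the result columns while the protocol names 77 µM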
Target sequence (P06280 whole entry, looked up): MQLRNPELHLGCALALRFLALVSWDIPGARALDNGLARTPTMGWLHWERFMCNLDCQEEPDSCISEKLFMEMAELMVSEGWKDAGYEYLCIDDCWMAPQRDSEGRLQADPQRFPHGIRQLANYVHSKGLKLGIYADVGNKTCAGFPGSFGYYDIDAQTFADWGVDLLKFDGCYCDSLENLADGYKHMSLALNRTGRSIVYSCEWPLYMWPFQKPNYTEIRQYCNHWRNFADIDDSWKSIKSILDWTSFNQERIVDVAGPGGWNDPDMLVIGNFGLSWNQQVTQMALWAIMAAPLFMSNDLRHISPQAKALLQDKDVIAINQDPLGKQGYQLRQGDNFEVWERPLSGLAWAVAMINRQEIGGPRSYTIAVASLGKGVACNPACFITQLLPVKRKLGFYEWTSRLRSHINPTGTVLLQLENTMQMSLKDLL
Rango-impB inh: inhibitors of Rango-importin beta complex formation | Q14974 | Rango CFP/YFP FRET sensor + importin beta, 45 min | Potency, µM (series often up to 92.2 µM), without a hit: at the highest dose inhibition of complex formation | hit rate 0.031% among 340,000 | AID 540263; active = rising FRET ratio curve, often small or poorly fitted; inconclusive = mostly compound fluorescence or quenching in the first reads; inactive = flat curves in all reads;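 further: potency means the concentration at half of the fitted maximal effect; 0% = DMSO wells and 100% = buffer wells lacking importin beta; nearly all actives have a fitted effect of over 15% in size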
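FRET biosensor (snurportin 1 IBB flanked by EYFP and cerulean), 50 nM, with compound 5 min, then 0.125 microM importin beta in PBS, 1 mM DTT, 0.02% Tween-20, 0.1% BSA. CFP/YFP ratio read after 45 min at room temperature; pre-read flags interference.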
* marks the source's active call; other numbers are inactive results; ? = inconclusive; · = no result given.

miR-21 FLuc	Rango dissoc inh	GLA inh pH 4.5	Rango-impB inh	Structure
·	-1%	·	-0.2%	O=C(Cc1c(F)cccc1Cl)NCC(=O)OCc1ccccc1
-1%	-2%	1	0.8%	O=C(O)C/C=C(/NC(=O)OCc1ccccc1)C(=O)OCc1ccccc1
0%	·	4	·	COc1ccc(NC(=O)Cn2cnc3c(nnn3-c3ccc(C)cc3)c2=O)cc1
-41%	-9%	2	-3.7%	COCC(=O)Nc1nc(-c2ccc(C)cc2)c(C)s1
·	-1%	·	-1.0%	CCCCCCCCCC(=O)N[C@@H]1c2cc(OC)c(OC)cc2C[C@H]1OCc1ccccc1
1%	1%	0	-1.1%	O=C(CN1C(=O)c2ccccc2C1=O)Nc1ccc(S(=O)(=O)N2CCOCC2)cc1
-8%	0%	·	3.2%	CC(C)(C)c1ccc(C(=O)NCCC(=O)NCc2cccs2)cc1
-17%	14%	·	-0.8%	CCC(C(=O)Nc1ccc2c(c1)OCCO2)c1ccccc1 (configuration not stated)
1%	-6%	·	?	CC(=O)c1c2c3c(cccc3n(C)c1=O)C(=O)c1ccccc1-2
2%	-4%	1	-3.4%	Cc1cccc(NC(=O)CSc2cc(C(=O)c3nccn3C)c3ccccc3n2)c1
·	18%	·	-1.0%	O=C(COC(=O)CNC(=O)c1ccccc1)NCCNC(=O)COC(=O)CNC(=O)c1ccccc1
·	-1%	·	0.1%	COc1ccc(CCC2(C)NC(=O)N(C(C)C(=O)N3c4ccccc4CC3C)C2=O)cc1 (configuration not stated)
-26%	6%	2	-0.1%	COc1ccc(-c2cc(NCc3ccccn3)n3ncnc3n2)cc1
-6%	·	18	·	CC(C)Cc1nc2oc3c(N4CCN(C)CC4)ncnc3c2c2c1CCCC2
-2%	-24%	-1	-1.3%	CC(=O)NCCn1c(SCC(=O)OCc2ccccc2)nc2ccccc2c1=O
-1%	-2%	2	-4.4%	COc1ccc2nc(N=Nc3ccc(O)c4ccccc34)sc2c1
·	10%	·	1.1%	COc1cc(NC(=O)CSC(=S)N2CCCC2)c(OC)cc1Cl
-1%	6%	0	0.6%	COc1ccc(-c2cc(C(F)(F)F)nc(N3CCOCC3)n2)cc1
·	-28%	·	9.6%	C[C@@H]1O[C@@H](O[C@@H]2C(=O)c3c(O)cc(O)cc3O[C@H]2c2ccc(O)c(O)c2)[C@H](O)[C@H](O)[C@H]1O
-9%	-1%	3	-1.3%	O=S(=O)(Nc1ccncc1Cl)c1ccccc1

An excerpt from above in order of the Rango dissoc inh value, highest first.
molecule	miR-21 FLuc	Rango dissoc inh	GLA inh pH 4.5	Rango-impB inh
O=C(COC(=O)CNC(=O)c1ccccc1)NCCNC(=O)COC(=O)CNC(=O)c1ccccc1	·	18%	·	-1.0%
COc1cc(NC(=O)CSC(=S)N2CCCC2)c(OC)cc1Cl	·	10%	·	1.1%
COc1ccc(CCC2(C)NC(=O)N(C(C)C(=O)N3c4ccccc4CC3C)C2=O)cc1 (configuration not stated)	·	-1%	·	0.1%
COc1ccc2nc(N=Nc3ccc(O)c4ccccc34)sc2c1	-1%	-2%	2	-4.4%
CC(=O)NCCn1c(SCC(=O)OCc2ccccc2)nc2ccccc2c1=O	-2%	-24%	-1	-1.3%
C[C@@H]1O[C@@H](O[C@@H]2C(=O)c3c(O)cc(O)cc3O[C@H]2c2ccc(O)c(O)c2)[C@H](O)[C@H](O)[C@H]1O	·	-28%	·	9.6%

The listing continues.
miR-21 FLuc	Rango dissoc inh	GLA inh pH 4.5	Rango-impB inh	Structure
-1%	2%	-4	3.7%	COCCNC(=O)/C(=C/c1ccccc1Cl)c1ccccc1
-5%	-2%	6	0.2%	CCCCC(=O)NC(=S)Nc1cc([N+](=O)[O-])ccc1OC
-6%	-12%	3	-0.8%	CC(C)(C)Oc1ncc(Br)c(OC(C)(C)C)n1
-34%	-15%	-2	-1.0%	Cc1cccc(NC(=O)COc2ccccc2)c1
1%	15%	13	-0.1%	Cc1csc2nnc(N)n12
·	11%	·	-0.1%	CCN(CC(=O)Nc1ccc(NC(C)=O)cc1)C(=O)c1ccc2c(c1)OCO2
·	-2%	·	2.3%	CCC(C)N(C(=O)COc1ccccc1C#N)C1CCS(=O)(=O)C1 (configuration not stated)
2%	-8%	·	-4.6%	COc1ccc(CCNCC(O)COc2cccc(C(C)=O)c2)cc1OC (configuration not stated)
1%	-12%	·	0.3%	Cc1c(C)n(Cc2ccc(F)cc2)c2ccc(C(=O)N3CCN(c4ccccn4)CC3)cc12
-64%	1%	-1	0.8%	CCOc1ccc2nc(SCC(=O)N(C)C)[nH]c2c1
-12%	1%	-2	-0.8%	O=C(NCc1ccc(C(F)(F)F)cc1)C1CC(c2ccccc2[N+](=O)[O-])=NO1 (configuration not stated)
-45%	11%	-23	-5.7%	O=C(CSc1ccccn1)Nc1ccc2c(c1)C(=O)c1ccccc1C2=O
-5%	10%	9	-0.5%	Cc1cc2oc(=O)c3c(c2cc1OC(=O)c1ccco1)CCCC3
-4%	3%	4	3.0%	CCCc1nnc(NC(=O)CC(=O)OCC)s1
-22%	?	-4	-3.2%	COc1ccc(N=C2NC(=O)/C(=C\C=C\c3ccco3)S2)cc1
-62%	-24%	-7	?	CC(=O)Oc1ccc(/C=N/NC(=S)Nc2ccccc2)cc1
-23%	-11%	-3	-0.4%	C/C(=N\Nc1ccc2nncn2n1)c1cccs1
6%	6%	-6	0.5%	CC1CC(N(C(=O)C2CC2)c2ccccc2)c2ccccc2N1C(=O)C1CC1 (configuration not stated)
1%	1%	1	-4.2%	O=[N+]([O-])c1cccc(-c2nnc3c4ccccc4c4ccccc4n23)c1
-2%	12%	-2	5.1%	CCCCn1c(=O)[nH]c(=O)c2c1nc(-c1ccc(OCCC)c(OCC)c1)n2CCOC
-15%	-5%	5	-2.6%	CC(C)(C)/C(Cn1cncn1)=N\OC(=O)Nc1ccc(Cl)cc1
-13%	16%	-6	3.1%	CCCCC(=O)Nc1ccc(NC(=O)c2ccc([N+](=O)[O-])cc2)cc1OC
2%	0%	·	2.3%	C=CCc1cccc(CNn2cnnc2)c1O
-14%	0%	7	-4.9%	CNC(=S)N/N=C/c1c(C)nn(-c2ccc(F)cc2)c1Cl
·	1%	·	-1.9%	C[C@H](CO)N1C[C@H](C)[C@@H](CN(C)C(=O)Nc2ccccc2)Oc2ccc(NC(=O)CCC(F)(F)F)cc2C1=O
-3%	21%	6	-2.0%	CC1CCN(C(=O)c2cc(Cl)nc3ccccc23)CC1
-4%	-13%	3	-2.8%	COC(=O)c1c(C)oc(C)c(C(=O)OC)c1=O
-11%	1%	·	2.7%	O=C(NCC(c1ccco1)N1CCCC1)c1sc2ccccc2c1Cl (configuration not stated)
-24%	-7%	0	4.6%	C/C(=N\NC(=O)c1cccc(N2CCCC2=O)c1)c1ccc(N)cc1
-7%	2%	-3	0.3%	Cc1cc(C(F)(F)F)n2[nH]c(=O)c(N=Nc3ccccc3)c2n1
23%	5%	6	0.5%	Cc1ccc(C(=O)c2c[nH]c(C(=O)NCc3cccnc3)c2)cc1
2%	16%	·	3.0%	C=CCNc1nc(N)c([N+](=O)[O-])c(N2CCCCCC2)n1
0%	16%	·	1.7%	COC(=O)c1ccc(CNC(=O)C2CCC(=O)N(C3CCCCCC3)C2)cc1 (configuration not stated)
·	1%	·	5.5%	COc1ccc(NC(=O)CN2C(=O)NC(CC(C)C)C2=O)cc1S(=O)(=O)N1CCOCC1 (configuration not stated)
-5%	-8%	-1	-0.7%	Cc1ccc(-c2csc(NC(=O)c3cccc([N+](=O)[O-])c3)n2)cc1
-7%	53%	-3	-0.2%	CCn1c(SCC(=O)Nc2cccc(NC(C)=O)c2)nnc1C(C)C
-17%	-2%	·	-0.4%	C/C(=N\NC(=O)c1ccccc1C)c1cccnc1
-8%	1%	1	0.0%	CCC(C)(C(=O)NC1CCCC1)N(C(=O)c1cnccn1)c1c(C)n(C)n(-c2ccccc2)c1=O (configuration not stated)
-4%	-1%	-11	-2.9%	COc1ccc(OCC(O)CNC(=O)Nc2cccc3ccccc23)cc1 (configuration not stated)
-5%	8%	9	5.6%	COc1cc(C(=O)NCc2ccc(C)cc2)ccc1OCc1c(C)noc1C

An excerpt of these results, with tabs.
mol	miR-21 FLuc	Rango dissoc inh	GLA inh pH 4.5	Rango-impB inh
CCn1c(SCC(=O)Nc2cccc(NC(C)=O)c2)nnc1C(C)C	-7%	53%	-3	-0.2%
C/C(=N\NC(=O)c1ccccc1C)c1cccnc1	-17%	-2%	·	-0.4%

Carrying on.
miR-21 FLuc	Rango dissoc inh	GLA inh pH 4.5	Rango-impB inh	Structure
0%	1%	5	-4.7%	O=c1c2ccccc2nc(SCc2cccc(F)c2)n1-c1cccc(S(=O)(=O)N2CCCC2)c1
-8%	-6%	·	-1.0%	Cc1cc(C)nc(SCc2c(F)cccc2Cl)n1
22%	1%	9	-0.4%	CC1=Cc2ccccc2C(C#N)N1C(=O)c1ccccc1 (configuration not stated)
0%	-3%	0	2.8%	CC(=O)NC(C)c1nc2ccccc2n1CC(=O)N1C(C)CCCC1C (configuration not stated)
-6%	-12%	-4	?	O=C(c1ccc2c3c(cccc13)C(=O)N(O)C2=O)N1CCCCC1
·	0%	-7	-2.4%	COc1cc(-c2cccc([C@H]3[C@@H]4C=CC[C@@H](C)[C@@H]4C(=O)N3Cc3ccccc3)c2)cc(OC)c1OC
-3%	4%	1	-1.2%	CN(C)/C=C(\C(=O)c1ccccc1)c1nnnn1-c1ccccc1
-13%	0%	-8	-4.9%	Cc1ccc(NC(=S)N2CCC(c3nc4ccccc4s3)CC2)cc1
-56%	12%	4	7.3%	Cc1cc(C(=O)CSc2nc3ccccc3c(=O)[nH]2)c(C)n1C
-1%	16%	-4	-0.4%	O=C(c1ccco1)N1CCN(C(c2ccccc2F)c2nnnn2Cc2cccs2)CC1 (configuration not stated)
-1%	-1%	3	0.3%	Cc1ccc(Nc2nnc(C3C(=O)N(C)C4(C)CC3c3cc(Br)ccc3O4)s2)cc1 (configuration not stated)
-34%	-9%	-4	-1.5%	Cc1cccc(C(=O)Nc2ccc(C(=O)/C=C/c3cccnc3)cc2)c1
12%	3%	·	?	Cc1[nH]c2ccccc2c1C(=O)CN1CC(C)CC(C)C1 (configuration not stated)
-60%	0%	10	12%	CCNC(=O)CCCOc1ccc(Cl)cc1Cl
5%	-2%	?	-1.0%	CN(C(=O)C(Cl)Cl)c1ccc(OC(=O)c2ccco2)cc1
0%	7%	·	0.4%	Cc1ccc(/C=C2/C(=N)N3N=C(CC(=O)N4CCCC4)SC3=NC2=O)o1
1%	5%	-2	-0.9%	O=C(C(=O)N1CCN(c2ccc(F)cc2)CC1)c1c[nH]c2ccccc12
4%	-2%	-9	5.3%	CC(NC(=O)Cn1ccsc1=N)C12CC3CC(CC(C3)C1)C2 (configuration not stated)
24%	1%	4	-2.6%	O=C(c1cccs1)N(Cc1nc2sc3c(c2c(=O)[nH]1)CCCC3)C1CCCC1
9%	-2%	-2	1.1%	CCC(CC)c1nnc(NC(=O)c2cccc(S(=O)(=O)N3CCc4ccccc43)c2)s1
-9%	39%	1	-3.9%	Cc1ccc(C)c(Oc2ncnc(N)c2[N+](=O)[O-])c1
-2%	-12%	·	-0.1%	CC(C)CN1CCN(Cc2cn(C)c3ccccc23)CC1CCO (configuration not stated)
24%	-2%	10	0.6%	CC(C)COC(=O)n1c(=O)oc2ccc(S(=O)(=O)N3CCCCC3)cc21
11%	-6%	-1	-2.8%	COc1ccc(Cn2c(=O)c3[nH]cnc3n(-c3ccccc3C)c2=O)cc1
-2%	1%	-5	-0.5%	CCN1C(=O)/C(=C/c2nc3ccccc3c(=O)n2-c2ccccc2)c2ccccc21
15%	-6%	·	-3.4%	COc1ccc(CC(=O)Nc2nc(-c3ccccc3)c(C(C)=O)s2)cc1OC
·	22%	·	-1.0%	CN(C)C(CNC(=O)c1ccc(S(=O)(=O)Nc2ccccc2)cc1)c1ccco1 (configuration not stated)
·	12%	·	-1.9%	COc1ccccc1NS(=O)(=O)c1ccc(C(=O)NCc2ccncc2)cc1
-3%	2%	·	?	CCCCc1cc(=O)oc2cc(OCC(=O)N3CCOCC3)ccc12
-5%	1%	-1	-2.0%	O=[N+]([O-])c1cc(S(=O)(=O)N2CCOCC2)ccc1N1CCCC1

The list is partial. The share of hits here may be higher or lower than overall.
